# HIV Env fusion: blocks HIV Env-driven cell-cell fusion | HeLa-JRFL Env/CEM21 cell fusion, luciferase | inhibition, % at 12.3 µM | 1.1% of 360,000 active | AID 651610;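 active = mean replicate inhibition score of at least 50 and every replicate individually at or above 50; inconclusive = only one of the two criteria met; inactive = mean below 50 and not all replicates reaching 50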;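 note: 0% = plate neutral controls and 100% = maraviroc near 300 nM; one replicate is shown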
# Yeast UUG start: alters start codon recognition fidelity in yeast; S. cerevisiae UUG-firefly luciferase reporter, luminescence/redox ratio; activity score, % at 18.7 µM; AID 602363; 0.13% of 350,000 active;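 active = replicate mean at a twofold rise or more, about +100% in these data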;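 note: firefly luciferase made from a UUG start codon reports start codon fidelity; reporter light over untreated wells divided by growth signal over untreated wells; some hits fall short of that in this replicate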
# Rce1 inhib: blocks yeast Ras-converting enzyme. Q03530. yeast membranes, quenched prenylated peptide cleavage fluorescence. calls only. 0.27% of 290,000 active;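 active = fall in fluorescence gain of 50% or more versus controls, with final raw signal at or below 3038400; inconclusive = same 50% fall but final raw signal above 3038400; inactive = fall in fluorescence gain under 50%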;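 note: plate controls were neutral control wells for no effect and wells lacking membranes for full effect; tested at 10 µM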
# CSC inhib: blocks cancer stem cells. cancer stem cell-like cells viability, luminescence. inhibition, % at 7.5 µM. 1.1% of 300,000 active. AID 2717;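 active = mean at 75% or more and at least half the replicates too; inconclusive = mean and replicates disagree; tested in HMLE shEcad cells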;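 note: 0% = median of negative and 100% = median of positive control wells; the first replicate is given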
# PABP polyA inh: PABP-poly(A) binding inhibition. P11940. PABP-poly(A) RNA binding, fluorescence polarization. inhibition, % at 35 µM. 1% of 290,000 active. AID 2014;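 active = 50% or more with normal probe brightness, or confirmed in later tests; inconclusive = above 50% with abnormal brightness, or retests that disagree; inactive = below 50% or failed in later tests; about a fifth of its hits are not listed in these tables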;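 note: calls also rest on retests at 20 µM and on dose response follow-up; controls were probe without protein and protein plus probe with vehicle; some compounds called inactive have numbers as strong as hits; many hits fall short of the cut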
# Target sequence (P11940 whole entry, looked up): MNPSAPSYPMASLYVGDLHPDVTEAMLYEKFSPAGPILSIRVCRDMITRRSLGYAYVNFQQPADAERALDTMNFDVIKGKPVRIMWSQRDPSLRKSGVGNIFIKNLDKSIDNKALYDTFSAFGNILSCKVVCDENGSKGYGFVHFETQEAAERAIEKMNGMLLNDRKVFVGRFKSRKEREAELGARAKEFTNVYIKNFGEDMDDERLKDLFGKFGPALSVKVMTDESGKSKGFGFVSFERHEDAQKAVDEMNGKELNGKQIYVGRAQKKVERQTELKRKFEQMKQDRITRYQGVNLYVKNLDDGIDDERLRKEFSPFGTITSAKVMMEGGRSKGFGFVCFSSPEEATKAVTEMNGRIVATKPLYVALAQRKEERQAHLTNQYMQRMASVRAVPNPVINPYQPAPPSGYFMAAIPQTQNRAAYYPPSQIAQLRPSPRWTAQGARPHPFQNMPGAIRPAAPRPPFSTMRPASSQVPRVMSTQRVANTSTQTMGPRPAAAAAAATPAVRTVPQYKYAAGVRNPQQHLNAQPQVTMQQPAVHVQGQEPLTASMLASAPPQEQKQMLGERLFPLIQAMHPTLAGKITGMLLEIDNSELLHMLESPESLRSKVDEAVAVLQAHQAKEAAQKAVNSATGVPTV
# eIF4H FP inh: inhibitors of RNA binding by human eIF4H; eIF4H fluorescence polarization binding assay; inhibition, % at 35 µM; 0.94% of 290,000 active; AID 2012;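 active = 50% or more with normal probe brightness, or confirmed in later tests; inconclusive = above 50% with abnormal brightness, or retests that disagree; inactive = below 50% or failed in later tests; about a fifth of its hits are not listed in these tables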;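 note: calls also rest on retests at 20 µM and on dose response follow-up; 0% = protein and probe with vehicle and 100% = probe without protein; strong numbers were not always called active; many hits fall short of the cut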
# MT1-MMP act inh: blocks activation of human MT1-MMP; P50281; HT1080 RFP-PRO-GFP cells, GFP/RFP ratio fluorescence, overnight; percent of plate control window, DMSO zero; GFP/RFP ratio change, % at 20 µM; 0.061% of 360,000 active;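 active = GFP/RFP ratio change of at least 30% with cell ATP level not reduced by more than half and red fluorescence within 50% of control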; note: strong numbers were not always called active
#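 Test system: HT1080 RFP-PRO-GFP cells; Benchmarks: DMSO and RFP-L50D-GFP cell wells; Timing: cells overnight before dosing, compound overnight, 37 °C, 5% CO2; Compound: one 20 µM compound dose with 1% DMSO; Read-out: GFP/RFP fluorescence ratio.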
# eIF4H FP inh retest: recorded beside eIF4H FP inh, whose call it bears; inhibition, %; compound at 20 µM; confirmation average;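 mean of two retest wells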
# PABP polyA inh retest: second read-out of PABP polyA inh, no call of its own (marks repeat the call); inhibition, %; compound at 20 µM; confirmation repeats;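 mean of two retest wells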
# MT1-MMP act inh RFP: further read-out of MT1-MMP act inh, marked with its call; RFP signal change, %; measured here: RFP expression control read;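 0 = vehicle wells; hits needed this value within 50% of zero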
# An asterisk follows results filed as active; i = inactive; ? = inconclusive; . = no result given.
SMILES,HIV Env fusion,Yeast UUG start,Rce1 inhib,CSC inhib,PABP polyA inh,eIF4H FP inh,MT1-MMP act inh,MT1-MMP act inh RFP,others
COC(=O)c1nn(-c2ccccc2)c(Sc2ccc(Br)cc2)c1/C=N/O,.,-7,.,0,5,-10,1,-3,
CC1(C)CCC(=O)N2CC[C@H]3C[C@H](OC(=O)Nc4ccccc4)C[C@@H]1[C@H]32,-52,4,i,5,5,-2,1,0,
O=C1COc2ccc(C(=O)c3ccccc3C(=O)NCc3ccccc3)cc2N1,.,8,i,-6,1,-8,5,12,
CC(C)c1nn(-c2cc(C(F)(F)F)ccn2)c(=O)o1,-4,-15,.,-9,5,3,3,5,
O=C(CSc1nc(C(F)(F)F)cc(=O)[nH]1)Nc1nccs1,-7,-30,i,-19,.,.,4,2,
O=C(CCCc1nc(-c2ccccc2)no1)N1CCOCC1,-55,-8,i,-16,2,-1,6,7,
Cc1ccccc1-c1n[nH]c(=S)n1/N=C/c1ccc(-c2ccccc2Br)o1,2,.,i,.,-4,7,4,-11,
CCCOc1ccc2c(C)c(CC(=O)OC)c(=O)oc2c1,.,-3,i,.,1,-15,2,-5,
CN1c2ccccc2C(C)(C)C12CCCC(=O)N2 (stereo not given),.,-1,i,-18,12,-5,-7,5,
O=C(Nc1ccc(Cl)cn1)Nc1cccs1,.,.,i,9,1,-2,-8,-5,
O=C(CSc1nc(-c2ccc(F)cc2)cc(C(F)(F)F)n1)NCCN1CCOCC1,.,11,i,-11,-10,8,-1,6,
CC[C@@H]1C=C(C(=O)O)[C@H](c2cccc(C)c2)N1S(=O)(=O)c1ccc(C)cc1,-4,-7,.,.,.,.,-3,2,
COc1ccc(CCNC(=O)C(NS(=O)(=O)c2cccc3nsnc23)C(C)C)cc1OC (stereo not given),-3,-2,i,.,6,-4,-3,2,
CCc1nnc(N/N=C/c2ccc(O)c(OC)c2)n1N,-10,-5,i,-1,3,-12,4,4,
CCn1c(SC(C)C)nnc1-c1cc(-c2ccccc2)sc1N,-25,-34,i,19,-16,-6,-5,-11,
O=C(c1ccc(=O)[nH]c1)N1CCN(S(=O)(=O)c2ccccc2)CC1,.,-9,i,.,-2,-9,2,5,
C[C@H]1CCC[C@@]2(O[C@H](CCO)C[C@@H](O)[C@@H]2O)O1,23,-14,i,-9,.,.,.,.,
COC(=O)c1sc(-c2ccccc2)cc1NC(=O)c1ccc(OC)cc1,15,.,i,24,-6,3,3,3,
CCCCOC(=O)Nc1ccc(C(N)=O)cc1,.,-15,i,-9,1,8,2,3,
CC(=O)Nc1ccc(C(=O)OCC(=O)N(Cc2ccccc2)C(C)(C)C)cc1,12,1,i,3,1,-4,0,4,

# Part of the list above in order of molar mass, largest number first.
SMILES,HIV Env fusion,Yeast UUG start,Rce1 inhib,CSC inhib,PABP polyA inh,eIF4H FP inh,MT1-MMP act inh,MT1-MMP act inh RFP,others
COc1ccc(CCNC(=O)C(NS(=O)(=O)c2cccc3nsnc23)C(C)C)cc1OC (stereo not given),-3,-2,i,.,6,-4,-3,2,
COC(=O)c1nn(-c2ccccc2)c(Sc2ccc(Br)cc2)c1/C=N/O,.,-7,.,0,5,-10,1,-3,
CC[C@@H]1C=C(C(=O)O)[C@H](c2cccc(C)c2)N1S(=O)(=O)c1ccc(C)cc1,-4,-7,.,.,.,.,-3,2,

# Continuation.
SMILES,HIV Env fusion,Yeast UUG start,Rce1 inhib,CSC inhib,PABP polyA inh,eIF4H FP inh,MT1-MMP act inh,MT1-MMP act inh RFP,others
O=C(NN=Cc1ccc([N+](=O)[O-])cc1)c1ccncc1,-3,-1,.,.,.,.,4,-1,
O=C(CSc1nnc(COc2ccc(F)cc2)o1)N1CCCCC1,-4,13,i,-27,-7,-6,0,-2,
Cc1ccc(NC(=O)NCc2c(C)nn(C)c2C)cc1Cl,-35,.,i,-9,-6,0,-4,-4,
Cc1cccc(NC(=O)C[n+]2ccccc2)c1,9,6,i,-1,-8,-11,-3,3,
NNC(=O)c1sc(-c2ccccc2)cc1N,-16,.,i,.,7,8,-20,6,
CCN(CC)CCN(C(=O)c1ccc(C(=O)c2ccccc2)cc1)c1nc2ccc(OC)cc2s1,3,19,i,2,-12,3,1,1,
O=C(NCCN1C(=O)S/C(=C\c2ccc(Cl)c(Cl)c2)C1=O)c1cnccn1,10,.,i,7,0,0,1,2,
Cc1ccc(C(=O)C=CNNC(=O)c2ccccc2)cc1,2,-5,i,-3,1,-8,-1,-1,
O=C(CNC(=O)c1cccs1)NCC(=O)OCc1ccccc1Br,-3,.,i,-15,5,-2,5,0,
COc1cccc(CNC(=O)CCCCCNC(=O)N2CCn3c2nc2ccccc23)c1,26,-16,i,6,4,-10,0,0,
O=C(NC1CCCCC1)C1CCN(C(=O)NCc2ccccc2)CC1,-9,-28,i,28,-3,9,-3,-2,
Cn1nccc1NC(=O)c1nccnc1C(=O)O,-4,.,i,-17,18,6,2,3,
CCN(CC)CCSc1nnc2c3ccccc3n(CCc3ccccc3)c2n1,-6,-13,i,36,-5,4,0,-2,
Cc1nc2ccc(NC(=O)Cc3cccc(F)c3)cc2s1,4,.,i,-3,17,5,-1,-3,
CC(C)(C)C(=O)COC(=O)c1ccc(O)cc1,-26,387*,i,-6,5,13,2,-1,
CC(C)(C)OC(=O)CNC(=O)c1nc[nH]c1C(=O)NCc1ccccc1,9,-9,i,3,-7,-4,5,-3,
COc1ccccc1N(CC(=O)NCCSCc1ccc(C)cc1)S(=O)(=O)c1ccccc1,11,7,i,0,0,-4,1,-6,
c1ccc(Cn2nnc3c(N4CCC5(CC4)OCCO5)ncnc32)cc1,.,-10,i,12,-10,-7,-5,-5,
O=C(CSc1cccc(C(F)(F)F)c1)Nc1ccc(N2CCOCC2)cc1,-8,3,.,0,.,.,2,-1,
CCOC(=O)CC(=O)CSc1nc(-c2ccccc2)cc(-c2ccccc2)c1C#N,.,.,i,42,-9,50,-6,-3,
O=C(CCC1CCCCC1)NNC(=O)NC12CC3CC(CC(C3)C1)C2,25,.,i,-17,-1,2,6,5,
Cn1nc(C(C)(C)C)cc1C(=O)N1CCCCC1c1cc(C(=O)NCc2cccnc2)no1 (stereo not given),-6,-14,.,.,.,.,0,0,
CC[n+]1c(/C=C/c2ccc(OC)c(OC)c2)ccc2ccccc21,-173,1,i,-2,59*,1,-19,-6,eIF4H FP inh retest=-10;PABP polyA inh retest=73*
CC(=O)Oc1ccc(C(=O)O)c(OC(C)=O)c1,0,-6,i,-11,7,12,3,4,
COCCNC(=O)/C(C#N)=C/c1cccc(NC(=O)c2ccccc2Cl)c1,.,-21,i,-4,12,-2,-5,-3,
CC(=O)Nc1ccc2c(c1)C(=O)c1ccccc1C2=O,-465,-11,i,8,8,4,0,-6,
CNC(=O)OC(C)CNS(=O)(=O)c1ccc(C)cc1 (stereo not given),.,3,i,2,10,3,-4,1,
COC(=O)c1c(NC(=O)COC(=O)c2ccc(O)cc2)sc2c1CCCCC2,17,.,i,22,2,18,-6,-12,
CC1CCN(CCNC(=O)c2ccc(NC(=O)C3CCCO3)cc2)CC1 (stereo not given),-19,-11,i,0,2,9,1,2,
COCCCNC(=O)C(=O)Nc1cc2c3c(c1)CCN3C(=O)CC2,0,-16,i,-15,9,-8,0,-1,
O=C(C[n+]1cc(-c2ccc(Cl)c(Cl)c2)n2c1CCC2)N1c2ccccc2Sc2ccccc21,.,.,i,-10,28,4,-12,-11,
O=C(CSc1nc2ccccc2o1)NC(=O)NCc1ccco1,-62,-24,i,-14,15,12,-1,-2,
O=C(COC(=O)c1cc(S(=O)(=O)N2CCCCC2)ccc1N1CCOCC1)c1ccc(Cl)cc1,14,-2,i,-5,.,.,8,17,
Cc1nc(NN)nc(NCc2ccccc2)n1,-2,-22,.,-9,-8,-18,-1,0,
CC(C)(C)c1ccc(OCCC(=O)OCC(=O)Nc2ccc(N3CCOCC3)cc2)cc1,.,10,i,-6,.,.,0,5,
NC(=O)c1nn(CC(=O)Nc2cccc(S(=O)(=O)N3CCCC3)c2)c(=O)c2ccccc12,.,3,.,-7,.,.,1,1,
COc1ccc(OC)c(C(=O)COC(=O)c2ccccc2O)c1,-80,-10,.,6,-10,-21,7,0,
O=C(CN1CCN(Cc2ccccc2)CC1)N/N=C\C=C/c1ccco1,0,.,i,-7,2.5*,?,2,6,PABP polyA inh retest=76*
CCOC(=O)C1=C(C)N(C)C(=O)C1CC(=O)O (stereo not given),-68,-16,i,3,-5,-8,-2,1,
O=C(CN1CCC(C(=O)c2ccc3c(c2)OCCO3)CC1)NC1CCCC1,45,-16,i,1,-8,-12,-3,1,
COCC(=O)Nc1ccc(S(=O)(=O)Nc2onc(C)c2C)cc1,0,-3,.,.,.,.,3,0,
CCCC(C)C(=O)N(Cc1ccccc1)c1ccccn1 (stereo not given),.,-3,i,-11,9,-4,-3,1,
CC(=O)Nc1cccc(NC(=O)COc2ccc3c(c2)OCO3)c1,-22,-24,.,-3,-4,4,-1,0,
COc1ccc(-c2nnc(SCCC(=O)O)n2C)cc1OC,.,-13,i,-15,32,2,6,5,
O=C(Nc1ccc2c(c1)N(Cc1ccccc1)C(=O)c1ccccc1S2)NC1CC1,-14,-9,i,27,-1,-2,-1,-3,
COC(CNC(=O)Cn1ncc2ccsc2c1=O)OC,-150,.,i,-7,-3,-5,-2,8,

# Molecules from the list above that have an aryl methoxy group (9):
SMILES,HIV Env fusion,Yeast UUG start,Rce1 inhib,CSC inhib,PABP polyA inh,eIF4H FP inh,MT1-MMP act inh,MT1-MMP act inh RFP,others
COc1ccc(CCNC(=O)C(NS(=O)(=O)c2cccc3nsnc23)C(C)C)cc1OC (stereo not given),-3,-2,i,.,6,-4,-3,2,
CCc1nnc(N/N=C/c2ccc(O)c(OC)c2)n1N,-10,-5,i,-1,3,-12,4,4,
COC(=O)c1sc(-c2ccccc2)cc1NC(=O)c1ccc(OC)cc1,15,.,i,24,-6,3,3,3,
CCN(CC)CCN(C(=O)c1ccc(C(=O)c2ccccc2)cc1)c1nc2ccc(OC)cc2s1,3,19,i,2,-12,3,1,1,
COc1cccc(CNC(=O)CCCCCNC(=O)N2CCn3c2nc2ccccc23)c1,26,-16,i,6,4,-10,0,0,
COc1ccccc1N(CC(=O)NCCSCc1ccc(C)cc1)S(=O)(=O)c1ccccc1,11,7,i,0,0,-4,1,-6,
CC[n+]1c(/C=C/c2ccc(OC)c(OC)c2)ccc2ccccc21,-173,1,i,-2,59*,1,-19,-6,eIF4H FP inh retest=-10;PABP polyA inh retest=73*
COc1ccc(OC)c(C(=O)COC(=O)c2ccccc2O)c1,-80,-10,.,6,-10,-21,7,0,
COc1ccc(-c2nnc(SCCC(=O)O)n2C)cc1OC,.,-13,i,-15,32,2,6,5,
